# Source: PubChem BioAssay
# RanGTP-Imp inh – inhibitors of RanGTP-importin-beta interaction, primary screen, biochemical, FRET, CFP-Ran, YFP-importin-beta, homogeneous; AID 2216, 2009; cell-free CFP-Ran/YFP-importin-beta FRET ratio; actives 1.1% (n = 300,000); Ran GTPase (GTP-bound) - importin-beta complex; inhibition, % (test concentration not listed);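 active = most replicates above 15%; inconclusive = exactly half above 15%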;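 also: 0% = DMSO wells and 100% = Ran loaded with GDP instead of GTP; wells of about 40 µL received 100 nL stock; the first replicate is given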
# Ecoli growth – E. coli growth inhibition, primary screen, OD600; Escherichia coli growth, 23 h; active compounds read low; OD600 absorbance (concentration not given with the values); actives 0.21% (n = 330,000);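 active = OD600 absorbance below the run mean of sample wells minus 3.6 SD, in any replicate, cut at about 0.56 in these data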;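 also: stock transfer was 300 nL into about 60 µL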
# Vif TR-FRET – inhibitors of Vif binding to APOBEC3G peptide, primary screen, biochemical, TR-FRET, GST-Vif 1-94, biotin-A3G peptide, dose response retest (AID 1117319); Virion infectivity factor (Human immunodeficiency virus type 1 group M subtype B (isolate …; TR-FRET GST-Vif / biotin-A3G peptide binding; higher % means a stronger effect; test concentration not given here; strong numbers were not always called active; one-dose inhibition, %; IC50 in µM for titrated hits; actives 0.57% (n = 260,000);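 active = above the screen mean plus three standard deviations and confirmed in dose response; inconclusive = results disagree or hit not tested in dose response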;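 also: Vif residues 1-94 fused to GST binding biotinylated APOBEC3G peptide 110-148; 0% = full assay without inhibitor and 100% = GST in place of GST-Vif; retest series ran down from 100 µM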
# UCH37 DUB inh – inhibitors of human UCH37 deubiquitinase, primary screen, biochemical, Ub-AMC cleavage, fluorescence. inhibition, % (test concentration not listed). Ubiquitin carboxyl-terminal hydrolase isozyme L5 (Homo sapiens), Q9Y5K5. AID 588478, 2011. purified proteasome/UCH37. actives 0.33% (n = 330,000);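 active = mean of two replicates above 20%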;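 also: 0% = compound-free wells with enzyme and 100% = wells lacking proteasome; stock transfer was 100 nL into about 20 µL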
# Target sequence (Q9Y5K5 whole entry, looked up): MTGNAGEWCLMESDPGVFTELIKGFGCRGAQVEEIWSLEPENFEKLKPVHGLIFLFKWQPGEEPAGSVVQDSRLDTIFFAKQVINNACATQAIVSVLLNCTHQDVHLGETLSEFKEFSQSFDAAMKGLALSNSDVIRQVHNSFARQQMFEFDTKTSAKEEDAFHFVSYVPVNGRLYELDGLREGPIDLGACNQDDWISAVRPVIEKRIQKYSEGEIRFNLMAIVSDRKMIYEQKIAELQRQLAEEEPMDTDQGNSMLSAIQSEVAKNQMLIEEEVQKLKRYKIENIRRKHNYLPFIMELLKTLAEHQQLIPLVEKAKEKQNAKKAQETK
#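 Material: human UCH37 enzyme supplied as purified proteasome complex. Measure: % inhibition of Ub-AMC cleavage fluorescence. Medium: pH 7.4 Tris-HCl (50 mM) with ovalbumin, ATP-MgCl2, DTT. Times: 30 min preincubation with enzyme, 25 min cleavage at room temperature. Detection: AMC fluorescence intensity at 355/460 nm.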
# HNF4A DNA FP – change in binding of human HNF4A to DNA, primary screen, biochemical, fluorescence polarization, FITC-DNA. Hepatocyte nuclear factor 4-alpha (Homo sapiens), P41235. actives 0.3% (n = 360,000). 1 h. AID 1224865, 2016. activity change, % at 10 µM; in the data active = activity change above about 30%, passing the limit was not always enough;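 also: controls were the assay level and a saturating level of protein; the project sought stronger binding though the title names inhibitors; some compounds called inactive have numbers as strong as hits; positive values seem to mean higher polarization but the record does not say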
# Target sequence (P41235 whole entry, looked up): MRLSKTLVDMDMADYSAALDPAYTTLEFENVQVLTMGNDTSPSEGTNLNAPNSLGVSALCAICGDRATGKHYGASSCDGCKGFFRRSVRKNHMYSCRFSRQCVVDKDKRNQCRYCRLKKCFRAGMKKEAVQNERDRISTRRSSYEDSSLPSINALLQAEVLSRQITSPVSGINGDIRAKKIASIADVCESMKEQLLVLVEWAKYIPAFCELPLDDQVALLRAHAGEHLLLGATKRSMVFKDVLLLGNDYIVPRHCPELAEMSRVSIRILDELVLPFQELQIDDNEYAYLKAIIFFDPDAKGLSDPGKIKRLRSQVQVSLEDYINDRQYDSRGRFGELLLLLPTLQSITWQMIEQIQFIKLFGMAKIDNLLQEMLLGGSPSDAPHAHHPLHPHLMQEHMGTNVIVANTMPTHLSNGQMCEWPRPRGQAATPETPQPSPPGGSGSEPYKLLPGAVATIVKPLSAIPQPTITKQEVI
# FGF22 binding – binders of human FGF22 protein, primary screen, FGF22 synaptogenesis inhibitor project, biophysical, thermal shift, single point. Fibroblast growth factor 22 (Homo sapiens), Q9HCT0. recombinant FGF22 thermal shift, SYPRO orange fluorescence; percent of sucrose octasulfate shift, DMSO zero. actives 1.5% (n = 340,000). calls only at 9.99 µM;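 active = melting point raised past a set limit in the mean and every replicate; inconclusive = no clear call; three in four hits are not shown here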
# Target sequence (Q9HCT0 whole entry, looked up): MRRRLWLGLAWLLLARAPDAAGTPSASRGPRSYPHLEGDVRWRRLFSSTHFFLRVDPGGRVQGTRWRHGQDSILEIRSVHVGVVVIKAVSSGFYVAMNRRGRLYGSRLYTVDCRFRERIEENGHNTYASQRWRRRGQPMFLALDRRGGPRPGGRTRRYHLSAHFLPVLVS
# AF4-AF9 inh – inhibitors of AF4 peptide binding to AF9, primary screen, biochemical, AlphaScreen, biotin-AF4 peptide, FLAG-AF9, single point | inhibition, % at 10 µM | actives 0.47% (n = 350,000) | AID 651704, 2012 | Protein AF-9 (Homo sapiens), P42568;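 active = every replicate reaching a set inhibition limit, whatever the replicate mean, cut at about 25% in these data; inconclusive = mean inhibition reaches that limit but some replicates miss it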;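 also: 0% = plate neutral control median and 100% = total signal loss; the record names both 10 and 1 µM as test concentration; the first replicate is given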
# * marks the source's active call; other numbers are inactive results; i = inactive; ? = inconclusive; . = not tested or not shown. Not all compounds are listed. The share of hits here may be higher or lower than overall.
SMILES,RanGTP-Imp inh,Ecoli growth,Vif TR-FRET,UCH37 DUB inh,HNF4A DNA FP,FGF22 binding,AF4-AF9 inh
Nc1ccn([C@@H]2O[C@H](COS(=O)(=O)O)[C@@H](O)[C@H]2O)c(=O)n1,.,.,.,-1.1,-0.1,i,-2.1
C/C=C/c1ccc(OCC(=O)NCc2ccccc2OC)c(OC)c1,1.4,0.691,?,3.8,1.6,i,-2.4
CC(C)(C)OC(=O)N[C@@H](Cc1ccccc1)C(=O)NCC1CCC(C(=O)N[C@@H](CCC(N)=O)C(=O)O)CC1 (some centres undefined),0.7,0.659,3.9%,4.0,-0.5,i,1.8
Cc1cc(C)nc(SCCC(=O)Nc2ccccc2Cl)n1,?,0.707,.,0.4,-1.5,i,-1.5
CCOc1ccc(/C(O)=C2/C(=O)C(=O)N(c3ccccn3)C2c2ccc(F)cc2)c(C)c1 (centres undefined),-6.5,0.666,.,11.8,-0.9,i,-1.9
CCOC(=O)C(Cc1ccc(O)cc1)NC(=O)c1cc2c(cn1)[nH]c1ccccc12 (centres undefined),.,.,.,.,9.2,i,1.9
CC(=O)N1CCC(C(=O)NCCOc2ccc(C)cc2)CC1,5.0,0.708,16.6%,3.0,1.1,i,-1.7
O=C(CCNC(=O)c1ccc(Cl)cc1)NC1CCCCCC1,.,0.672,.,1.2,0.4,i,1.6
O=C(CCN1C(=O)CSc2ccccc21)Nc1ccc(C(F)(F)F)cc1,.,0.682,-3.9%,1.2,3.6,i,-2.0
Cc1ccc(Oc2nc3ccccn3c(=O)c2/C=C(\C#N)C(=O)NC2CCS(=O)(=O)C2)cc1 (centres undefined),29.4*,0.67,11.7%,-43.2,0.7,i,-1.7
CN1CCN(S(=O)(=O)c2ccc(N3CCN(c4ccc(O)cc4)CC3)c([N+](=O)[O-])c2)CC1,3.6,0.638,16.7%,2.4,-2.1,i,20.5
Cc1ccc(OCc2nnc(SCC(=O)Nc3ccc4c(c3)OCO4)n2C)cc1,0.7,0.709,7.4%,6.0,0.9,.,.
Fc1ccc(-c2csc3ncnc(Nc4ccc(N5CCOCC5)cc4)c23)cc1,-4.5,0.674,13.9%,-1.6,7.8,.,.
O=C(CSc1nc2c(sc3ccccc32)c(=O)n1CCCN1CCCC1)NCc1ccco1,0.9,0.704,25.9%,4.4,2.1,i,8.9
Cc1cc(NC(=O)CS(=O)(=O)c2cn(C)c3ccccc23)no1,2.0,0.696,-3.0%,1.8,2.2,i,-8.8
COc1ccc(CCNC(=O)COC(=O)c2ccc(Br)o2)cc1OC,0.5,0.659,2.4%,-2.0,1.4,.,.
C/C(=N\NC(=O)Cn1cc([N+](=O)[O-])cn1)c1ccc(O)cc1,-3.7,.,-4.7%,.,0.1,i,5.8
CCOc1ccc(C(=O)OCn2nnc3ccccc3c2=O)cc1OC,2.5,0.645,1.4%,0.3,0.3,i,4.0
Cc1cccc(Oc2ncc(-c3ccc(Cl)cc3)cn2)c1,?,0.738,7.0%,-1.6,-0.4,.,.
O=C(NCCc1nnc2ccc(NCc3ccc(Cl)cc3)nn12)c1ccccc1,-0.9,0.693,4.0%,-1.4,-0.7,i,-0.4
CCN(CC)CCN1C(=O)C(=O)/C(=C(/O)c2ccc3c(c2)CC(C)O3)C1c1ccc(OC)cc1 (centres undefined),-6.2,0.601,-18.2%,8.1,-2.8,i,18.5
Cc1cc(Nc2ccc(F)cc2F)n2ncnc2n1,0.4,0.674,-0.2%,3.3,-2.6,i,3.0
O=C(NC1(N2CCOCC2)CC1)c1ccc(Cl)cc1,0.7,0.694,.,0.1,4.5,i,1.6
CCNc1c([N+](=O)[O-])c(=O)oc2ccccc12,4.5,0.607,8.4%,7.0,1.2,i,-2.9
C=CCOn1c(=O)c(-c2ccc(OCC)cc2)[n+]([O-])c2ccccc21,0.3,0.73,-2.8%,4.3,0.9,i,0.2
Cc1ccc(Cn2nnc3c(=O)n(CC(=O)N4CCCCC4)cnc32)cc1,-0.8,0.747,5.4%,-1.9,11.0,.,.
C/C(CC(=O)Nc1ccc(N(C)C)cc1)=N\NC(=O)c1cnccn1,-2.1,.,?,.,3.8,.,.
Cc1cc(C)c(NC(=O)CNC(=O)CSc2nnc(N)s2)c(C)c1,-1.0,0.634,0.1%,4.1,0.5,i,-0.8
COc1ccc(N2CCN(c3oc(-c4ccco4)nc3C#N)CC2)cc1,-2.1,0.653,?,-0.6,-1.7,.,.
CC1(C)CC(=O)c2cc(C(=O)NC3CCSC3=O)c(=O)n(-c3ccccc3)c2C1 (centres undefined),-4.6,0.708,-3.0%,-8.3,-0.1,.,.
O=C(NC(=S)Nc1ccccc1N1CCCC1)c1ccc([N+](=O)[O-])cc1,9.0,0.731,-7.1%,5.4,-1.3,.,.
Cc1ccc(C(=O)NCCN2CCOCC2)cc1,3.5,0.665,-6.0%,0.1,0.4,i,7.2
Nc1[nH]c(C(=O)c2ccccc2)c(-c2ccccc2C(F)(F)F)c1C(=O)NCCc1c[nH]c2ccccc12,.,.,.,.,9.3,i,-0.3
Cn1ccnc1C(=O)c1ccc(Cl)c(S(=O)(=O)N2CCOCC2)c1,-3.7,0.681,-2.4%,4.3,3.3,i,1.0
Cc1cccc(NC(=O)CC2SC(=O)N(c3ccccc3)C2=O)c1 (centres undefined),-0.7,0.705,17.3%,3.4,1.7,.,.
NS(=O)(=O)c1ccc(S(=O)(=O)N(CCc2ccccc2)Cc2ccccn2)cc1,1.6,0.701,24.3%,0.0,-1.7,i,2.3
CN(C)c1ccnc(Oc2ccc(C(C)(C)C)cc2)c1C#N,0.4,0.647,-7.5%,-0.9,-1.6,.,.
Cc1ncc([N+](=O)[O-])n1S(=O)(=O)c1cc(Br)ccc1Br,?,0.634,.,4.1,4.2,i,-1.5
CCCOc1ccc(Cn2c(=O)oc3ccc(C)cc32)cc1OC,3.4,0.697,-4.5%,3.3,0.9,.,.
Cc1ccc(NC(=O)c2cc(=O)c3ccccc3o2)c(C)c1,2.3,0.701,.,3.4,1.0,i,-3.1
COc1ccc(C(=O)Nc2cccc(S(C)(=O)=O)c2)cc1,0.7,0.65,.,-1.0,0.4,i,-1.4
Cc1cc(C)cc(OCC(=O)OCC(=O)NCCC2=CCCCC2)c1,-3.1,0.719,11.4%,-1.9,-0.9,.,.
CCOc1cccc2cc(C(=O)NCc3cccnc3)c(=O)oc12,.,0.717,-3.5%,-10.7,-0.2,.,.
COc1cc2c(cc1NC(=O)c1ccco1)CCCC2,4.2,0.667,?,4.1,-4.6,i,5.0
Cc1cc(C)n(-c2ncc(C#N)cn2)n1,-1.6,0.653,1.5%,2.8,2.4,i,-1.5
CCCc1nc(NCC2CCCO2)c2nnn(Cc3ccccc3)c2n1 (centres undefined),2.0,0.744,22.7%,-2.7,2.1,.,.
CCOC(=O)CSc1nnc(-c2ccc3ncccc3c2)n1C,1.5,0.662,17.2%,5.2,2.9,i,-2.4
Cc1ccc(Cl)cc1NS(=O)(=O)c1ccc(-n2cccn2)cc1,?,0.693,5.2%,3.4,1.7,i,0.7
CCCCNC(=O)C1(C)CCN1C(=O)c1ccc2c(c1)CCO2 (centres undefined),.,.,.,.,1.2,i,0.1
O=C(CN1C(=O)CSc2ccc(C(F)(F)F)cc21)Nc1ccccc1,-3.3,0.678,.,-2.3,3.7,i,-24.3

# The list goes on.
SMILES,RanGTP-Imp inh,Ecoli growth,Vif TR-FRET,UCH37 DUB inh,HNF4A DNA FP,FGF22 binding,AF4-AF9 inh
O=[N+]([O-])c1ccc(C(S(=O)(=O)Cc2ccccc2)S(=O)(=O)Cc2ccccc2)cc1,.,.,-0.7%,.,1.0,i,-0.6
CCOC(=O)N1C2CCC(C2)N1C(=O)OCC,.,.,.,.,2.4,i,0.0
CCOC(=O)c1[nH]c(C)c(/C=N/O)c1C,1.5,.,2.8%,.,1.8,.,.
CCN(C[C@H]1N[C@@](CC)(C(=O)OC)[C@H]2C(=O)N(C)C(=O)[C@@H]12)C(=O)Nc1ccccc1,.,0.694,-1.1%,3.8,-4.0,i,-0.3
COc1cccc(/C=N/NC(=O)c2c(-c3ccccc3)noc2C)c1OC,-0.7,.,.,.,-0.4,i,1.9
CCCCn1c(N)c(N(CC(C)C)C(=O)c2oc3ccc(Br)cc3c2C)c(=O)[nH]c1=O,0.0,0.691,-4.4%,-2.0,1.2,i,-1.8
CC1=CC(C)(C)Nc2ccc(OC(=O)CN3C(=O)c4cccc5cccc(c45)C3=O)cc21,-1.9,0.712,1.99µM*,-115.5,7.3,.,.
COc1cccc(NC(=O)CSc2nnc(Cn3nnc4ccccc43)n2C)c1,1.6,0.714,?,-2.2,-0.6,.,.
CCCn1c(=N)n(CC(=O)OCC)c2ccccc21,?,0.744,8.0%,0.4,-0.5,.,.
COCCNC(=O)c1ccccc1NC(=O)c1cc(OC)cc(OC)c1,?,0.674,1.2%,0.9,-4.2,i,-1.5
O=C(CNC(=O)C1COc2ccccc2O1)N/N=C\c1ccccc1Cl (centres undefined),-0.7,.,.,.,-0.5,i,-1.2
O=C(NNc1ccccn1)c1ccc(Cl)nc1,1.7,0.687,10.3%,5.4,-1.2,i,-1.7
CCC(CC)NC(=O)CCc1nc2ccccc2c(=O)[nH]1,4.5,0.646,-2.9%,2.4,1.2,.,.
COc1cc(/C=N/NC2=NS(=O)(=O)c3ccccc32)ccc1OC(C)=O,1.1,.,-2.2%,.,1.1,i,1.8
c1csc(-c2nc3ccccn3c2NC2CCCCC2)c1,0.2,0.643,?,-255.6,4.8,i,-1.3
Cc1nc([N+](=O)[O-])cn1CC(=O)Nc1ccc(F)c(Cl)c1,1.2,0.635,.,4.0,-2.7,i,-2.6
Cc1noc(C)c1COc1ccccc1C(=O)NCCOc1ccccc1F,.,0.651,6.1%,0.5,-0.9,i,-0.2
O=C(OCC(O)COc1ccccc1)c1ccc([N+](=O)[O-])cc1 (centres undefined),-0.4,0.688,1.9%,5.5,-0.7,i,0.8
O=C(NCCc1ccccc1)C(c1ccc(F)cc1)N(C(=O)c1csnn1)C1CC1 (centres undefined),-4.2,0.669,.,1.4,18.9,i,1.3
COc1cc(NC(=O)N2CCOCC2)cc(OC)c1,5.5,0.707,9.0%,0.0,-1.5,.,.
COc1cc(C(=O)OCC(=O)NC2CCCCC2)cc2c1OCCO2,.,0.722,.,1.3,1.5,i,-15.2
CC(=O)NNc1ncnc2c1cnn2-c1ccc(C)c(C)c1,5.8,0.714,0.2%,-6.3,0.5,i,0.1
COc1cc(NC(=O)Cn2c(=O)n(CC3CCCO3)c(=O)c3cc(OC)c(OC)cc32)cc(OC)c1 (centres undefined),0.0,0.731,.,-7.0,4.4,i,-0.6
CC1(C(=O)NCc2cccc(C(F)(F)F)c2)CCN1C1Cc2ccccc2C1 (centres undefined),.,.,.,.,1.7,i,-0.2
